Bioassay records from PubChem.
D2 PAM: positive allosteric modulators of human D2 dopamine receptor; P14416; DiscoveRx D2 beta-arrestin cells, luminescence, 90 min; 100% = 57 uM dopamine signal; potentiation, % (no concentration beside the values); 360,000 tested, 0.23% active; active = potentiation of 50% or more; inconclusive = 30% to 50%; inactive = 30% or less;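 also: compound concentration not given in the record; tested on top of an EC20 dose of dopamine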
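PathHunter beta-arrestin assay in DiscoveRx D2 cells. Compounds were added with an EC20 of dopamine (50 nM final) for 90 min at 37 deg C. Luminescence was read 1 h after detection reagent, with 57 uM dopamine as the EC100 control.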
CtBP-E1A blk: blocks the CtBP interaction with E1A; AlphaScreen GST-E1A/His-CtBP binding, 1536-well; active compounds read low; control for the full effect not named in the record; 340,000 tested, 0.49% active; activity change, % (test concentration not listed); in the data active means activity change below about -65%; inconclusive means about -30% to -65%; inactive means above about -30%; also: % is scaled to controls: 0 for no effect and ±100 for the full control effect
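AlphaScreen with 125 nM GST-E1A and 125 nM His-CtBP (5X stocks) in Tris pH 8.0, 300 mM NaCl, BSA, Tween 20, TCEP. Compounds preincubated 2 h at 37 deg C, then glutathione donor/nickel acceptor beads added for 1 h at 37 deg C in dark.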
Six1-Eya2 blk: blocks human Six1 binding to Eya2; Q15475+O00167; AlphaScreen GST-Six1/His-Eya2 binding, biochemical; active compounds read low; control for the full effect not named in the record; activity change, % (concentration not given with the values); 360,000 tested, 0.56% active; AID 651725; in the data active = activity change below about -65%; inconclusive = about -30% to -65%; inactive = above about -30%; also: % is scaled to controls: 0 for no effect and ±100 for the full control effect
Target sequence (O00167 whole entry, looked up): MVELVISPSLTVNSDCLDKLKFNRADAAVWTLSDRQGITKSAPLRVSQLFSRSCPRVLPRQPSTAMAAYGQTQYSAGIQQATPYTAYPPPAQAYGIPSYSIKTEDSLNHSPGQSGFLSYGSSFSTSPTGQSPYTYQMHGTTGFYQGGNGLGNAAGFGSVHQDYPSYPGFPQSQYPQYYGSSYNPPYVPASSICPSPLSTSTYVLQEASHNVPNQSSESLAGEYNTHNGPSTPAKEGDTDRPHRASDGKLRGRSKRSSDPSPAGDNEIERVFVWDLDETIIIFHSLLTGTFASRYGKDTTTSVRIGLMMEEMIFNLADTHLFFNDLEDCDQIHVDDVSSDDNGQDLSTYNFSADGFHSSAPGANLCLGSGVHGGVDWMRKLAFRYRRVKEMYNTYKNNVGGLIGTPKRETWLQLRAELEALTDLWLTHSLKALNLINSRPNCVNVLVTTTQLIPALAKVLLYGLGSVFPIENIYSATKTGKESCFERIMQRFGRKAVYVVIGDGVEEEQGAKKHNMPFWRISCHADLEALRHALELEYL
Target sequence (Q15475 whole entry, looked up): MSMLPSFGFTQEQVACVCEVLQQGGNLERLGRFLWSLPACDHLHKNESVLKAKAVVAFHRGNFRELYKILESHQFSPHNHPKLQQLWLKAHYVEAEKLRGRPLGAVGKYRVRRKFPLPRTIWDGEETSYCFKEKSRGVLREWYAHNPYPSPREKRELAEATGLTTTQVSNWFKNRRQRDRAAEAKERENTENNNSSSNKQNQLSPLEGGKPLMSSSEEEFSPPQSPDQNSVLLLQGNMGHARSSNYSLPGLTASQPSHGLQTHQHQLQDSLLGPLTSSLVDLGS
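AlphaScreen luminescence read after one hour at 37 °C in darkness. Pin-transferred compounds met GST-Six1 and His-Eya2 protein (5X stock 250 nM/500 nM) plus glutathione donor and Ni-chelate acceptor beads (5X, 50 ug/mL).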
gsp antag: gsp mutant antagonism; Potency, µM (titrated, usually from 76.9 µM), without a hit: at the highest dose activity change, negative = inhibition, actives largely listed as inhibitors; 340,000 tested, 0.4% active; gsp-mutant cells, cAMP HTRF, 30 min; control for the full effect not named in the record; AID 624288; active = falling curve of any shape with a large fitted effect; inconclusive = falling curve, mostly with a smaller effect; inactive = flat or rising curve; cell line not stated here;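 also: intracellular cAMP measured with PDE inhibitor Ro 20-1724 present during compound exposure; potency is read from the fitted curve at half-maximal effect; % is scaled to controls: 0 for no effect and ±100 for the full control effect; nearly all actives have a fitted effect of over 65% in size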
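Measurement of cellular cAMP by homogeneous time-resolved fluorescence following a 30 min compound exposure at 37C. The PDE inhibitor […] was present throughout; the assay buffer was DPBS with 0.05% BSA and 0.005% Tween 20.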
gsp ag: activates gsp, the McCune-Albright syndrome mutation. gsp mutant cells, cAMP HTRF, 30 min; control for the full effect not named in the record. Potency, µM (titrated, usually from 76.9 µM), for inactives: top-dose activation (cAMP increase), actives largely listed as activators. 340,000 tested, 0.13% active. AID 624287; active = well fitted activation curve with a large enough effect; inconclusive = small, poorly fitted or top-dose-only effect, or another doubt; inactive = no such curve, though single readings can be large or run the other way; cell line not stated here;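 also: phosphodiesterase inhibitor Ro 20-1724 added with compounds to block cAMP breakdown; potency is read from the fitted curve at half-maximal effect; nearly all actives have a fitted effect of over 60% in size; about a fifth of the inactives were tested at one dose only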
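Cells stably selected in G418 were plated at 2000/well, grown 16-24 hr, then given compounds in DMSO with the PDE inhibitor […] (300 uM solution added) for 30 min at 37C; cAMP was read by HTRF.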
D2 agonist: human D2 receptor agonism in beta-arrestin assay; P14416; DiscoveRx PathHunter D2 beta-arrestin, luminescence, 90 min; 100% = 57 uM dopamine signal; activation, % (concentration not given with the values); 360,000 tested, 0.084% active; AID 624465; in the data active = activation above about 40%; inconclusive = about 15% to 40%; inactive = below about 15%; also: compound concentration not given in the record; the text of the record calls up to 30% inactive
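Agonist mode: compounds alone added to overnight-plated D2 PathHunter cells for 90 min at 37 C, with 57 uM final dopamine (EC100) defining full response. Beta-arrestin recruitment detected by chemiluminescent reagent, read after 1 h at ambient temperature.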
Active calls of the source: *; ? = inconclusive; . = not tested or not shown; [ ] = remark or other dose.

D2 PAM,CtBP-E1A blk,Molecule,Six1-Eya2 blk,gsp antag,gsp ag,D2 agonist
-8,3,O=C(COC(=O)/C=C/c1ccccc1Cl)NC(=O)NCc1ccccc1,-7,-1%,-33%[inhibitor],-6.0
-5,11,O=C(NCc1ccccc1)c1ccc(COCC(F)(F)F)o1,1,4%,-9%,-1.8
-8,11,CCC(C)C(NS(=O)(=O)c1ccc(C)cc1)C(=O)O (configuration not stated),6,14%,-26%,1.3
-8,1,COc1ccc(NC(=O)CSc2nc3c([nH]c4ccccc43)c(=O)n2C)cc1,5,6%,26%,-4.3
-16,3,COc1ccc(C=NNC(=O)c2ccccc2OCc2ccc(F)cc2)c(OC)c1,2,-11%,2%[15.4 µM],-5.1
-2,8,COc1ccc(C(=O)COC(=O)c2cccnc2SC)cc1,3,4%,-9%[15.4 µM],-2.3
-35,13,O=C1CCCC2=C1C1(O)C(=O)c3ccccc3C1(O)O2 (configuration not stated),12,2%,11%,-7.7
-4,-7,Oc1ccccc1Cc1c(O)ccc2ccccc12,-8,-2%,-20%,3.1
-9,3,COc1ccc(Cl)cc1NC(=O)C(C)Sc1nncn1C (configuration not stated),-2,4%,-1%,-3.1
27,-4,COc1cc(N)ccc1Cc1ccc(N)cc1OC,-6,-15%,-11%,-0.7
-12,-10,O=[N+]([O-])c1cccc(NC(=S)N2CCc3ccccc32)c1,-10,-20%,17%,-1.5
-20,-5,O=C(COC(=O)c1cc(=O)c2ccccc2o1)Nc1ccc2ccccc2c1,-11,-4%,10%,-0.8
-12,.,C/C(N)=C(/C#N)C(=O)COC(=O)c1cccc(C)c1O,7,5%,19%,0.0
-3,4,O=Cc1cc(-c2ccccc2)[nH]c1-c1ccccc1,0,-4%,-33%[inhibitor],6.0
-1,.,COc1cc(F)ccc1S(=O)(=O)NCc1cccnc1,-3,11%,1%,-1.1
10,.,CC(=O)c1cccc(NC(=O)C2C3C=CC(C3)C2C(=O)O)c1 (configuration not stated),1,10%,15%,-3.0
-3,-20,Cc1ccc(CNC(=O)CCc2nnc(Cc3ccc(-c4ccccc4)cc3)o2)o1,-6,-11%,4%,0.0
-24,-2,COC(=O)c1ccccc1NC(=O)Nc1cccs1,1,8%,29%,-2.1
-8,.,O=C(/C=C/c1ccccc1)Nc1scc(-c2ccccc2)c1C(=O)O,-4,-17%,-32%[inhibitor],-4.0
-21,0,CN(C)CCn1c(=O)n(Cc2ccccc2)c(=O)c2c3c(sc21)CCCCC3,-17,1%,10%[15.4 µM],-4.1

In a second layout: two of the compounds above
SMILES,D2 PAM,CtBP-E1A blk,Six1-Eya2 blk,gsp antag,gsp ag,D2 agonist
O=Cc1cc(-c2ccccc2)[nH]c1-c1ccccc1,-3,4,0,-4%,-33%[inhibitor],6.0
COc1cc(F)ccc1S(=O)(=O)NCc1cccnc1,-1,.,-3,11%,1%,-1.1

Carrying on:
D2 PAM,CtBP-E1A blk,Molecule,Six1-Eya2 blk,gsp antag,gsp ag,D2 agonist
0,-2,COc1cccc(NS(=O)(=O)c2ccc(OC)c(OC)c2)c1,3,-3%,?,-0.9
-22,0,CC(NC(C(=O)c1ccccc1)c1ccccc1)c1ccccc1 (configuration not stated),-10,-6%,1%,-17
-7,-9,COc1cccc(-c2nc(NC(C)(C)C)c3ccccc3n2)c1O,-15,?,3%,-4.2
-3,4,Cc1cccc(S(=O)(=O)NC(=O)C2(C)CCN2C(=O)Cc2ccc(C(C)(C)C)cc2)c1 (configuration not stated),3,.,.,-2.8
-19,-11,CCCn1c2ccccc2c2nnc(SCc3[nH]c(=O)[nH]c3C(=O)CCCCC(=O)OCC)nc21,-20,7%,-6%,5.4
10,-8,O=C(COC(=O)C1CCN(S(=O)(=O)c2ccc(Cl)c(C(F)(F)F)c2)CC1)NCc1ccco1,7,9%,6%,-3.1
-18,.,Nc1ncnc(Nc2ccccc2Cl)n1,2,3%,12%,-4.8
0,-8,Cc1ccc(S(=O)(=O)NCCCC(=O)N2CCC(C)CC2)cc1,1,-8%,7%[15.4 µM],0.3
-2,7,Cc1ccc(-n2cc(C(=O)c3ccccc3O)cn2)cc1,4,-9%,-5%[15.4 µM],-4.1
-5,2,O=C(NNC(=O)C1CCCC1)c1ccccc1F,4,14%,2%[15.4 µM],-5.9
1,-1,CC(=O)Nc1nc(C)c(C(C)C)s1,-6,10%,7%[15.4 µM],2.8
-11,9,COc1cc(NC(=O)c2ccc3c(c2)OCO3)c2ncccc2c1,-1,-3%,-3%,-0.9
1,5,CCN(CC)C(=O)Nc1ccccc1C,4,12%,13%,-0.7
4,4,COC(CNC(=O)c1ccc2c(c1)ncn2-c1cccc(F)c1)OC,-2,9%,-35%,1.7
3,-22,CC(=O)Nc1ccc(-c2ccnc3c2CC(C(=O)NC(C)C)O3)cc1 (configuration not stated),10,.,.,7.6
9,12,COCCN(C(=S)Nc1c(C)cccc1C)C(C)c1cccnc1 (configuration not stated),0,-3%,?,-2.9
-5,0,Cc1cc(C(=O)N/N=C/c2ccc(N(C)C)cc2)c2ccccc2n1,-7,17%,2%[15.4 µM],1.5
-13,-2,NC(=O)CSc1nnc(COc2ccccc2)n1CCc1ccccc1,1,-5%,0%,0.5
-6,3,Cc1cccc(NC(=O)c2ccc3c(c2)C(=O)N(c2ccccc2C)C3=O)n1,0,-21%,?,5.0
4,6,On1c(-c2ccccc2Cl)nc2ncccc21,-5,12%,-57%[inhibitor],-1.1

Individual results from the results shown.
Cc1cccc(S(=O)(=O)NC(=O)C2(C)CCN2C(=O)Cc2ccc(C(C)(C)C)cc2)c1 (configuration not stated) in D2 agonist shows -2.8
CC(=O)Nc1ccc(-c2ccnc3c2CC(C(=O)NC(C)C)O3)cc1 (configuration not stated) in CtBP-E1A blk shows -22
On1c(-c2ccccc2Cl)nc2ncccc21 in gsp antag shows 12%
Nc1ncnc(Nc2ccccc2Cl)n1 in gsp antag shows 3%
CC(=O)Nc1nc(C)c(C(C)C)s1 in D2 PAM shows 1

More records.
D2 PAM,CtBP-E1A blk,Molecule,Six1-Eya2 blk,gsp antag,gsp ag,D2 agonist
-10,?,O=C(Nc1ccon1)c1nc[nH]c1C(=O)NCc1ccccc1,?,11%,-9%,-2.3
23,2,NC(N)=NCCCS(=O)(=O)Nc1ccc(Nc2c3ccccc3nc3cc([N+](=O)[O-])ccc23)cc1,-4,-5%,-9%,7.7
3,-6,CCc1nnc(NC(=O)c2ccc(Cl)nc2)s1,0,-8%,-18%,2.7
-3,-4,Cc1nn(-c2ccccc2)c(Cl)c1/C=C1\C(=O)N(C)C(=S)N1C,-6,-8%,5%,2.0
-4,2,CCn1c(/C=C/c2c[nH]c3ccccc23)nc2ccccc2c1=O,8,-29%,10%[15.4 µM],6.9
-3,-1,CC1CCN(c2nc3c(c(=O)[nH]c(=O)n3C)n2Cc2ccccc2Cl)CC1,-4,-23%,-30%[inhibitor],-30
-6,-9,O=C(NC1CCCCC1)C(c1ccco1)N(C(=O)c1csnn1)c1ccc(Cl)cc1 (configuration not stated),-3,-3%,1%[15.4 µM],-0.5
-9,8,COc1cc(C)c(C#N)c(OC)n1,3,5%,0%,-3.6
3,-5,Cc1c(NC(=O)CSc2nc(N)cc(N)n2)c(=O)n(-c2ccccc2)n1C,7,12%,16%,-2.6
-6,-5,COc1ccc(CN2C(=O)c3ccccc3C2C(=O)NC2CCC(C)CC2)c(OC)c1 (configuration not stated),2,-9%,26%,-5.4
-14,3,CS(=O)(=O)NCc1ccc(C(=O)NCCOc2ccccc2)cc1,4,4%,-19%,-2.3
-7,12,CCCCNC(=O)Nc1ccccc1C(=O)NCCC,2,-2%,-18%,-2.7
-8,2,CC(=O)c1sc(NC(=O)COc2ccc(C)c(C)c2)nc1C,2,8%,4%,1.1
-26,.,COc1ccc(OCC(O)CNC(=O)Nc2ccc(C(C)(C)C)cc2)cc1 (configuration not stated),-20,-2%,27%,-7.4
3,0,O=C(NCc1ccco1)c1cc([N+](=O)[O-])ccc1N1CCCCC1,-6,-16%,-12%,-5.7
0,-3,Cc1cccc(C2c3[nH]c4ccccc4c3CCN2Cc2ccc(C)s2)n1 (configuration not stated),-10,-5%,17%,4.3
-6,-1,CCOc1ccc(NC(=S)N(CCc2c(C)[nH]c3ccc(C)cc23)Cc2cccnc2)cc1,-5,-12%,-27%,-1.8
-17,11,CCOc1ccc(NC(=O)Cn2nnc(-c3ccccc3F)n2)cc1,-4,-1%,-17%,2.6
-15,.,COc1ccc(S(=O)(=O)N(C)C)cc1NC(=O)CSC(C)C(=O)Nc1cc(C)on1 (configuration not stated),2,3%,?,-1.7
4,1,Cc1nn(-c2ccccc2)c(C)c1C(=O)OCC(N)=O,0,6%,?,4.3
-4,-8,CC(=O)Nc1ccc2c(CSc3nnc(-c4cccnc4)n3-c3ccc(C)cc3C)cc(=O)oc2c1,-3,5%,15%[15.4 µM],-1.6
-15,0,Cc1ccc2c(c1)nnn2C1CCN(S(C)(=O)=O)CC1,5,-3%,-3%,-2.9
-18,.,NNc1nc(-c2ccccc2Cl)nc2ccccc12,-6,3%,-33%[inhibitor],1.3
-3,-6,COC(=O)c1ccc(C)c(NC(=O)CSc2sc3c(O)cc(=O)[nH]c3c2C#N)c1,-22,-20%,?,-1.9
-1,4,Cc1nc(NC(=O)C2CC2)sc1C(=O)N(C)C,1,10%,-46%[inhibitor],-3.3
-9,-24,COC(=O)CSc1nc(C2CC2)nc2ccccc12,0,-6%,-6%,-1.4
-9,-10,Cc1ccc(S(=O)(=O)NC(=O)COc2ccccc2)cc1,5,7%,-25%,1.0
-27,19,COC(=O)Cn1nc(-c2ccc(C)cc2)c2ccccc2c1=O,3,-13%,-10%[15.4 µM],-5.5
-1,5,CCn1cc(/C=N\NC(=O)c2csc3ccccc23)c(C)n1,-4,-4%,-2%,-0.9
-4,8,NC(=O)CSc1nccn1Cc1ccc(Cl)cc1,14,-4%,-4%[15.4 µM],0.2
-5,7,O=C(COC(=O)c1ccc(Br)o1)NCCc1ccccc1,5,0%,0%[15.4 µM],-0.2
-4,2,COc1cc(OC)cc(-c2nc3ccccc3c(=O)o2)c1,-1,-13%,-12%,2.3
-7,-1,O=C1C(C2=NC(c3ccccn3)C3C(=O)N(c4ccccc4)C(=O)C23)=C(O)c2ccccc21 (configuration not stated),15,12%,-1%,-4.0
-1,-1,CN(C)/C=N/c1sccc1C(N)=O,9,4%,9%,-2.3
-3,7,Cc1ccc(OCC(=O)Nc2ccc(F)cc2)c([N+](=O)[O-])n1,0,3%,?,3.6
-7,-71*,CC/C(=N\Nc1ccccc1[N+](=O)[O-])c1ccc(O)cc1,?,-2%,-9%,-2.3

Among those listed so far, these have two or more sulfur atoms:
D2 PAM,CtBP-E1A blk,Molecule,Six1-Eya2 blk,gsp antag,gsp ag,D2 agonist
-15,.,COc1ccc(S(=O)(=O)N(C)C)cc1NC(=O)CSC(C)C(=O)Nc1cc(C)on1 (configuration not stated),2,3%,?,-1.7
-3,-6,COC(=O)c1ccc(C)c(NC(=O)CSc2sc3c(O)cc(=O)[nH]c3c2C#N)c1,-22,-20%,?,-1.9
